Screens from PubChem.
miR-21 FLuc = miR-21 reporter, rising signal; 340,000 tested, under 10 active; HeLa miR-21 FLuc reporter, luciferase, 48 h; Potency, µM (doses to about 38.3 µM), inactives show at the top dose reporter change, positive = more light; active = well fitted rising curve with a large enough effect; inconclusive = small, poorly fitted or top-dose-only effect; inactive = no such curve, though single readings can be large or run the other way;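 also: % of control where 0% means no effect; miR-21 action dims this reporter so a rising signal means less miR-21 action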
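Luminescence from a firefly luciferase reporter carrying a miR-21 binding site downstream, stably expressed under a CMV promoter in HeLa cells that make miR-21 endogenously, reports miRNA modulation after 48 h compound exposure up to approximately 40uM final.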
Active calls of the source: *; ? = inconclusive. This is a subset; count on the stated rates, not on these rows.

SMILES | miR-21 FLuc
O=C(O)c1ccc(NC(=O)c2ccc(Br)c(S(=O)(=O)N3CCCC3)c2)cc1 | -7.2%
Cc1ccc(N(C)C(=O)c2sc3nc4n(c(=O)c3c2C)CCCC4)cc1C | -14.2%
COc1ccc(/C=C/c2onc(C)c2S(=O)(=O)N2CCC(C(=O)N3CCCCC3)CC2)cc1 | -2.1%
COc1ccc(Cl)cc1NC(=O)CN(c1cccc(C)c1C)S(=O)(=O)c1ccccc1 | 9.9%
CCN(CC)S(=O)(=O)c1ccc(NC(=O)[C@H](CSCc2ccccc2)N2Cc3ccccc3C2=O)cc1 | 3.4%
CCn1c(CN2CCN(C)CC2)nc2cc(NC(=O)c3ccc([N+](=O)[O-])cc3)ccc21 | -9.1%
Cc1ccc(N2CCN(C(=O)c3c(C)oc4ncnc(N5CCOCC5)c34)CC2)c(C)c1 | 3.9%
Cc1cc(OCC(=O)NCC2(N3CCN(C)CC3)CCCCC2)cc(C)c1Cl | -1.5%
Cc1c(C)n(Cc2ccccc2)c2ccc(C(=O)N3CCN(c4ccccc4)CC3)cc12 | -10.2%
COc1cccc(NC(=O)Cn2c(=O)n(CCCCC(=O)NCCc3ccccc3)c(=O)c3ccccc32)c1 | -0.4%
O=S(=O)(Nc1cccc(-c2ccc(N3CCOCC3)nn2)c1)c1ccc(F)c(C(F)(F)F)c1 | -28.2%
O=C(Nc1cccc(C(F)(F)F)c1)Nc1ccc2snnc2c1 | ?
CCc1ccc(NC(=O)COCc2cc(-c3ccc(F)cc3)on2)cc1 | -10.9%
Cc1ccc2c(c1)N(C(=O)Nc1cccc3c1CCCC3)CC(C)O2 (stereo not drawn) | 1.0%
CCOCCn1ccc2c(OCC(=O)NCc3ccc(C)cc3)cccc2c1=O | -4.0%
CCN1CCN(c2ncnc3c2cnn3-c2ccc(C)cc2)CC1 | -24.0%
Cc1ccccc1-c1nc(CS(=O)(=O)CC(=O)NCC(C)c2ccccc2)c(C)o1 (stereo not drawn) | 4.0%
Cc1cc(C)c(Cn2c(C)c(CNCc3ccccc3C)c(C(=O)O)c2C)c(C)c1 | 22.8%
N#Cc1ccc(NC(=O)c2ccc3c(c2)nnn3C2CCCC2)cc1 | -6.8%
CCCSc1ncnc2c1c(-c1ccccc1)cn2-c1ccccc1OC | 4.4%
CCOCCCNC(=O)C1CCN(c2nc3ccc(Cl)cc3[nH]2)CC1 | -5.9%
CCOC(=O)c1c(-c2ccc(OC)cc2)oc2ccc(OCc3ccc(C(=O)OC)cc3)cc12 | 0.5%
CCn1c2c(c(=O)n3ncc(C(=O)Nc4ccc(OC(F)(F)F)cc4)c13)CN(Cc1ccc(OC)cc1)CC2 | -4.9%
Cc1ccc(Cn2nnc(C(=O)Nc3ccc(F)c(F)c3)c2N)cc1 | 0.8%
COc1ccc(-c2cc(C(F)(F)F)n3nc(C(=O)Nc4cc(C)ccc4C)cc3n2)cc1 | 0.2%
CCCCNC(=O)CCCn1c(=O)c2ccccc2n(CC(=O)Nc2ccccc2OCC)c1=O | -1.9%
CCc1ccc(OC(C)C(=O)N2CCC(c3nc4ccccc4o3)CC2)cc1 (stereo not drawn) | 26.8%
CCCCn1c(=N)c(S(=O)(=O)c2ccc(Cl)cc2)cc2c(=O)n3cccc(C)c3nc21 | -4.7%
CCc1nn2c(=O)cc(COC(=O)c3ccccc3NC(=O)C3CCCCC3)nc2s1 | -9.2%
COC(=O)Cn1c(=O)c2cccn2c2ccc(F)cc21 | -4.6%
COc1ccc(Cn2ccn(Cc3cccc(C)c3)c(=O)c2=O)cc1 | -10.9%
Cc1ccccc1NC(=O)c1sc2nc3n(c(=O)c2c1C)CCC3 | 3.3%
COC(=O)c1ccc(NC(=O)CN2CCCN(Cc3ccc(Cl)cc3)S2(=O)=O)cc1 | 0.2%
Cc1ccc(-c2onc(C)c2C)cc1S(=O)(=O)Nc1cccc(Cl)c1C | 19.5%
CCOC(=O)N1CCN(Cc2nc3cc(NC(=O)c4cccc(C)c4)ccc3n2C(C)C)CC1 | 24.1%
C=Cc1ccc(CSc2nnc(C)n3c2cc2occc23)cc1 | -36.8%
O=C(COc1ccc(Br)cc1)Nc1ccc(C(=O)OC2CCCCC2)cc1 | -0.5%
O=C1N=c2ccc(Br)cc2=C1c1sc(=O)[nH]c1O | -4.3%
COc1ccc(NS(=O)(=O)c2c(C)nc3scc(C)n3c2=O)cc1 | -0.2%
CCOC(=O)c1c(-c2ccc(C)cc2)csc1NC(=O)c1cc(=O)c2cc(Cl)ccc2o1 | -1.1%
CCOC(=O)c1ccc(N2CCN(c3cccc(Cl)c3)CC2)c(NC(=O)Nc2ccc(Cl)cc2)c1 | 22.3%
COc1ccc(CCNC(=O)c2cc3c(=O)oc4ccc(C)cc4c3s2)cc1OC | 0.2%
Cc1ccccc1NC(=O)c1ccc(N(Cc2ccccc2)S(C)(=O)=O)cc1 | -1.3%
CC1CCN(S(=O)(=O)c2ccc3c(c2)c(=O)c(C(=O)NCCc2ccccc2)cn3C)CC1 | -8.8%
CC1=C(c2ccc(C)cc2)S(=O)(=O)NC1=NCc1ccccc1Cl | -0.8%
Cc1ccc2oc(-c3ccc(C)c(NC(=O)c4ccc(-c5ccccc5[N+](=O)[O-])o4)c3)nc2c1 | -65.0%
COC(=O)c1ccccc1NC(=O)CCn1nc(C)c2c(C)n(-c3ccccc3)nc2c1=O | 0.8%
COc1cccc(NC(=O)CSc2nccn2C2CCCC2)c1 | -34.5%
Cc1ccc(C)c(S(=O)(=O)c2cn(Cc3ccccc3)c3cc(N4CCCC4)c(F)cc3c2=O)c1 | 4.0%
COc1ccc(Cn2ccc3nc(C)c(C(=O)Nc4ccc(OC)cc4OC)cc3c2=O)cc1 | -9.5%
CC(C)Cn1c(=O)c2ccccc2n2c(CCC(=O)NCc3ccccc3Cl)nnc12 | 0.3%
Cc1ccc(NC(=O)c2oc3ccccc3c2NC(=O)c2ccccc2C)cc1 | -13.9%
CCCSc1nnc2[nH]c(=O)cc(C)n12 | -2.2%
O=C(COc1ccccc1[N+](=O)[O-])N(Cc1ccco1)c1ccccn1 | -35.6%
O=C(NCCc1ccccc1)c1ccc2nc(CCc3ccccc3)oc2c1 | -42.9%
Cc1sc2ncn(CC(=O)Nc3ccc(F)cc3Cl)c(=O)c2c1S(=O)(=O)N1CCN(c2ncccn2)CC1 | -1.7%
CC(C)(C)C1CCc2nc(NC(=O)COc3ccccc3[N+](=O)[O-])sc2C1 (stereo not drawn) | 6.8%
COc1cccc(N2CCN(C(=O)c3cnc4c(C)cccn4c3=O)CC2)c1 | -15.6%
Cc1cccc(NC(=O)c2sc3ncnc(N(C)C4CCCCC4)c3c2C)c1C | 21.8%
Cc1ccc(S(=O)(=O)CCC(=O)N2CCN(c3nc4c(C)c(Cl)ccc4s3)CC2)cc1 | 1.2%

Sorted by the number under miR-21 FLuc (largest number first): 4 from the list above.
smiles,miR-21 FLuc
Cc1cccc(NC(=O)c2sc3ncnc(N(C)C4CCCCC4)c3c2C)c1C,21.8%
CC(C)(C)C1CCc2nc(NC(=O)COc3ccccc3[N+](=O)[O-])sc2C1 (stereo not drawn),6.8%
Cc1ccc(NC(=O)c2oc3ccccc3c2NC(=O)c2ccccc2C)cc1,-13.9%
COc1cccc(N2CCN(C(=O)c3cnc4c(C)cccn4c3=O)CC2)c1,-15.6%

Next section:
SMILES | miR-21 FLuc
Cc1ccc(Cn2c(CNC(=O)c3ccccc3Br)nc3cccnc32)cc1 | 2.3%
CCc1ccc(CN(Cc2cn[nH]c2-c2ccc(OC)cc2)C(=O)Nc2ccc(C)c(F)c2)cc1 | 11.0%
O=C1C(=O)N(C2CCN(C(=O)c3ccccc3Cl)CC2)CCN1Cc1ccc(F)cc1 | -1.2%
Cc1oc(-c2cccc(Cl)c2)nc1CN1CCCC(C(=O)N2CCN(c3ccc(F)cc3)CC2)C1 (stereo not drawn) | 0.7%
Cc1ccc(C)c(N2C(=O)N(Cc3cc(=O)n4ccccc4n3)c3ccccc3S2(=O)=O)c1 | 21.9%
O=C(CCCCCn1c(=O)[nH]c2ccccc2c1=O)NCc1ccccc1 | -4.4%
Cn1c(=O)[nH]c(=O)c2c1nc1n2CCN1c1ccccc1 | -1.4%
Cc1cc2ccccc2n1CCNC(=O)c1ccc(Br)cc1 | -11.4%
O=C(Nc1cccc(-c2nc3ccccc3o2)c1)C(F)(F)F | -48.2%
CCOC(=O)c1c(C)oc2nc(C)nc(NCC3CCN(Cc4ccccc4C)CC3)c12 | -1.2%
CCOC(=O)c1ccc(NC(=O)c2c(NCc3ccc(OC)c(OC)c3OC)sc3c2CCC(C)C3)cc1 (stereo not drawn) | 1.3%
COc1ccc(CNC(=O)C2CCN(S(=O)(=O)c3c(C)noc3/C=C/c3cccs3)CC2)cc1 | -5.1%
O=C(CCS(=O)(=O)c1cccs1)Nc1ccc(C(=O)Nc2cccc(Cl)c2)cc1 | 8.3%
CCN1CCN(c2csc3ccc(F)cc3c2=O)CC1 | -10.9%
COc1ccccc1CNC(=O)C1CCN(S(=O)(=O)c2cn(C)cn2)CC1 | 0.7%
CCOc1ccc(N2CC(NC(=O)C3CCCC3)CC2=O)cc1 (stereo not drawn) | -1.5%
COc1ccc(C2=Nn3c(nc4sc(C(=O)Nc5cccc(C)c5)c(C)c4c3=O)SC2)cc1 | 10.3%
Cc1nc2nc(SCC(=O)NC(C)c3ccccc3)nn2c(C)c1Cc1c(F)cccc1Cl (stereo not drawn) | 1.7%
Cc1cc(C)c(NC(=O)CSC2=Nc3ccccc3C3=NC(CC(=O)NCc4cccs4)C(=O)N23)c(C)c1 (stereo not drawn) | 2.2%
COc1ccc(Nc2ncnc3c2cnn3-c2ccc(C)cc2C)cc1 | -48.8%
Cc1ccc(CCNC(=O)CCn2nc(-c3ccc(Cl)cc3)ccc2=O)cc1 | -0.8%
Cc1nc(-c2ccc(S(=O)(=O)N3CCN(c4cc(Cl)ccc4C)CC3)cc2)co1 | -2.3%
CCNC(=O)C1CCN(c2nnc(C)c3c(C)n(-c4ccc(OC)cc4)nc23)CC1 | -5.6%
CCc1cccc(NC(=O)CCS(=O)(=O)c2ccc3nc(C)sc3c2)c1 | -0.7%
Cc1ccc(-c2onc(C)c2C)cc1S(=O)(=O)N1CCc2ccccc21 | 20.2%
CC(=O)c1[nH]c(C)c(C(=O)NCCc2ccc(C)cc2)c1C | 0.8%
COc1ccc(Cl)cc1NC(=O)CCn1nc(C)cc1C | -6.1%
COc1ccc(CCNc2nc(SCc3ccc(Cl)cc3)nc3ccccc23)cc1OC | -0.5%
CC(CNC(=O)c1ccc2nc(Cc3ccccc3)oc2c1)c1ccccc1 (stereo not drawn) | 0.7%
CCCCn1cc(S(=O)(=O)c2ccc(C)cc2)c(=O)c2cc(F)c(N3CCCCC3)cc21 | -0.6%
Cc1ccc(NC(=O)CSCc2cc(=O)c3ccccc3[nH]2)c(C)c1 | 3.5%
CCCCc1ccc(NC(=O)c2ccc3c(c2)CCN3S(=O)(=O)CC)cc1 | -2.1%
O=C(Cc1ccc(F)cc1)NCCc1csc2nc(-c3ccc(Cl)cc3)nn12 | 8.9%
COc1ccc(N(CC(=O)NCCSC2CCCCC2)S(=O)(=O)c2ccccc2)c(OC)c1 | 11.1%
COc1ccc(NC(=O)c2cc(=O)c3cc(C)cc(C)c3o2)cc1 | -10.3%
O=C1N(Cc2ccccc2)c2ccc(Cl)cc2C1(O)c1c[nH]c2ccccc12 (stereo not drawn) | ?
CCOc1ccc(-n2cc(-c3ccccc3)c3c(N4CCN(c5ccccc5OC)CC4)ncnc32)cc1 | -0.1%
Cc1ccc(C2CCN(C(=O)c3cnn(-c4cccc(Cl)c4)c3C3CCN(C(=O)OC(C)(C)C)CC3)C2)cc1 (stereo not drawn) | 27.3%
COC(=O)CSc1nc2sc3c(c2c(=O)n1-c1ccccc1C)CC(C)(C)OC3 | -3.4%
O=C(Cn1cnc2onc(-c3ccc(F)cc3)c2c1=O)N1CCN(c2ccccc2F)CC1 | -1.8%
Cc1ccc(NC(=O)Cc2coc3c(C)c(C)ccc23)c(C)c1 | -13.9%
COc1cccc(NC(=O)c2ccc(-c3nc(COc4ccc(C)cc4)c(C)o3)cc2)c1 | 7.1%
COc1ccc(CCNC(=O)Cn2c(-c3ccc(F)cc3)cc(C(C)=O)c2C)cc1OC | 5.6%
Cc1ccc(OCC(=O)N(Cc2ccc(Cl)cc2)CC2CCCO2)cc1C (stereo not drawn) | 8.5%
CCn1ccc2cc(S(=O)(=O)N3CCCN(C(=O)Nc4ccc(C)cc4)CC3)ccc21 | 2.3%
O=C(CN1C(=O)CCc2cc(S(=O)(=O)N3CCOCC3)ccc21)Nc1cccc(Cl)c1 | -12.5%
CCCOc1ccc(-c2nc(N3CCC(C)CC3)c3ccccc3n2)cc1 | -10.8%
CCc1ccc(N2CCn3c2nc2c3c(=O)n(C/C=C/c3ccccc3)c(=O)n2C)cc1 | 0.0%
COC(=O)C1=C(C)NC(=O)C1(NC(=O)c1cc(OC)c(OC)c(OC)c1)C(F)(F)F (stereo not drawn) | -1.9%
CCN1CCN(CCCNC(=O)Cn2nc(C)n3c(cc4cc(C)ccc43)c2=O)CC1 | 0.3%
COC(=O)c1c(NC(=O)COc2ccc(Cl)cc2C)sc2c1CCCCC2 | -0.7%
O=C(Nc1c(C(=O)c2ccc(F)cc2)oc2ccccc12)c1cc(-c2ccccc2)on1 | -6.8%
COc1ccc(C(=O)n2nc(-c3ccc(Cl)cc3)nc2NCc2ccco2)cc1 | -16.3%

Given tab-delimited: six of the compounds above.
Compound	miR-21 FLuc
COc1ccc(C2=Nn3c(nc4sc(C(=O)Nc5cccc(C)c5)c(C)c4c3=O)SC2)cc1	10.3%
CCOC(=O)c1c(-c2ccc(OC)cc2)oc2ccc(OCc3ccc(C(=O)OC)cc3)cc12	0.5%
COC(=O)C1=C(C)NC(=O)C1(NC(=O)c1cc(OC)c(OC)c(OC)c1)C(F)(F)F (stereo not drawn)	-1.9%
COc1ccc(CCNc2nc(SCc3ccc(Cl)cc3)nc3ccccc23)cc1OC	-0.5%
Cc1ccc(Cn2nnc(C(=O)Nc3ccc(F)c(F)c3)c2N)cc1	0.8%
CCOC(=O)c1c(-c2ccc(C)cc2)csc1NC(=O)c1cc(=O)c2cc(Cl)ccc2o1	-1.1%
